Screens deposited in PubChem by Johns Hopkins Ion Channel Center.
KCNQ2 enhance: KCNQ2 (rat) channel potentiation; B-score at 10 µM; hit rate 0.54% among 310,000; CHO-K1 KCNQ2, FluxOR thallium flux fluorescence; active compounds read high; O88943;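 active = fluorescence ratio B-score at least 3 SD of library B-scores, with initial fluorescence B-score within 3 SD, cut at about 5.3 in these data; same plate scores as AID 2156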;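 note: B-score of peak minus minimum over baseline fluorescence ratio after K+ and Tl+ stimulus; positive B-score means potentiation of KCNQ2 with more thallium influx and brighter signal; only the inactives scoring about 0 or higher are listed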
Target sequence (O88943 whole entry, looked up): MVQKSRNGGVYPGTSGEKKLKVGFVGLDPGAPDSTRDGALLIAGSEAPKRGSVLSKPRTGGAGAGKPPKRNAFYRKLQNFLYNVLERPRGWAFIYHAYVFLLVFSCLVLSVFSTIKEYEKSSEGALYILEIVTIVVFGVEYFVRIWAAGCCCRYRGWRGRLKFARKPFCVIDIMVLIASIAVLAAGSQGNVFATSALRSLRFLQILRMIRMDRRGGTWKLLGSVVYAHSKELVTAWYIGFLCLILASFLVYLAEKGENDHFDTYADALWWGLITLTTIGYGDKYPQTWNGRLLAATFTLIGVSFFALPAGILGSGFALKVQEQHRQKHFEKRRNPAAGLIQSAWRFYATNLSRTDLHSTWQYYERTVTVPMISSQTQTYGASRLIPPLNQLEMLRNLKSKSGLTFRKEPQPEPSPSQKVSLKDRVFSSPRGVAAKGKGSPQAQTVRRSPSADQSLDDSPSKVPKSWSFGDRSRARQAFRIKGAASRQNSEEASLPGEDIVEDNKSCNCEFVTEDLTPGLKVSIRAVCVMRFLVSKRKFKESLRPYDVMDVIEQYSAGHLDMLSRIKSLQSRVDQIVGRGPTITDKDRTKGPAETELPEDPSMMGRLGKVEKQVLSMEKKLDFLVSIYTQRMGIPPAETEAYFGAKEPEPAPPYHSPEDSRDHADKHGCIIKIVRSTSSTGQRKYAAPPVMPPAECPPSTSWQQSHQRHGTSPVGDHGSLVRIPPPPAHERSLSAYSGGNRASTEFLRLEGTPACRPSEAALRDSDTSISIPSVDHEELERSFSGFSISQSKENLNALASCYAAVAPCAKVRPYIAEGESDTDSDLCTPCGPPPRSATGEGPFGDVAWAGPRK
KCNQ2 enhance baseline: further read-out of KCNQ2 enhance, marked with its call; B-score; compound at 10 µM; measured here: initial fluorescence intensity artifact check;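 brightness before thallium and not channel activity; 0 = typical well and far values either way flag optical interference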
Active calls of the source: *. This is a subset; the hit share may differ from the screen's.

KCNQ2 enhance	KCNQ2 enhance baseline	SMILES
0.11	0.13	CCOC(=O)c1cnc2c(c(C3CC3)nn2C)c1N1CCOCC1
0.41	1.5	Cc1nc2nc(CC(=O)O)[nH]n2c(=O)c1[N+](=O)[O-]
1.3	-1.9	COP(=O)(OC)c1nc(-c2ccccc2)oc1N1CCOCC1
0.6	0.27	O=C(CNC(=O)c1ccccc1F)N/N=C/c1cc(Br)ccc1OC(=O)/C=C/c1ccco1
1.9	-0.03	CCc1nnc(N/N=C/c2ccccc2Cl)n1N
0.32	1.7	O=S(=O)(Nc1nc2ccccc2nc1-[n+]1cccc(N=C([O-])c2ccc(Cl)cc2)c1)c1ccccc1
0.64	0.37	CC1(C)Cc2c(sc(N)c2C#N)C(C)(C)N1
0.54	0.26	Cc1cc(-c2nnc(CCC(=O)N(C)Cc3cccc4ccccc34)o2)no1
1.2	1.1	O=C(CCNC(=O)c1ccc(Cl)cc1)Nc1c(F)c(F)cc(F)c1F
0.11	0.72	C1CNC(C23CC4CC(CC(C4)C2)C3)=N1
0.44	-1.7	COc1ccccc1Nc1nc(-c2ccc3c(c2)NC(=O)CO3)cs1
0.94	-1	CCc1c(C(=O)Nc2ccc(S(=O)(=O)N3CCOCC3)cc2)csc1C
1.3	-0.35	Cc1nn(C)c(C)c1CNC(=O)Nc1ccc2c(c1)OCO2
0.25	-0.43	COc1ccccc1CNC(=O)C1CCN(C(=O)c2sccc2-n2cccc2)CC1
1.2	1.1	COc1ccc(/C(=N\O)c2nccc3cc(OC)c(OC)cc23)cc1OC
1.2	-0.28	O=C(Nc1ccccc1Oc1cccnc1)C1CCCN(Cc2ccc(F)cc2)C1 (configuration not stated)
0.67	0.09	CC1CC(C)CN(S(=O)(=O)N2CCC(C(=O)NCc3ccco3)CC2)C1 (configuration not stated)
0.01	-1.5	COc1ccc(-c2ccc(S(=O)(=O)n3nc(OC(=O)c4cccs4)cc3N)cc2)cc1
0.26	0.2	COc1ccc(-n2cc(-c3ccc(C)cc3)[n+]3c2SCC3)cc1
1.3	0.49	Cc1c(NS(=O)(=O)c2ccc3c(c2)CCN3C(=O)C2CC2)c(=O)n(-c2ccccc2)n1C
3.2	0.15	COc1ccc(NC(=O)C2CCCO2)cc1 (configuration not stated)
0.48	-2.4	O=C(NCc1ccc2[nH]c3c(c2c1)CCCC3)c1ccc(S(=O)(=O)N2CCCC2)cc1
0.09	-1.1	COc1ccccc1C(=O)N(C)c1nnc(-c2ccccc2)s1
0.19	-1.8	COc1cccc(C2OC(=O)c3ccccc3N2C(C)=O)c1OC(C)=O (configuration not stated)
0.42	0.4	O=C(O)CCc1ccc(-c2ccccc2)n1CC(=O)O
1.1	0.66	CCO[C@@H]1OC(C(=O)Nc2ccccc2)=C[C@H](c2csc3ccccc23)[C@H]1CCCO
0.26	-0.12	CCCCNc1cc(C)oc(=O)c1C(C)=O
0.49	-2.3	S=c1nc(-c2cc(Cl)ccc2Cl)[nH][nH]1
2.5	-0.46	COC(=O)COc1cc(C)cc2oc(=O)c(CC(=O)OC)c(C)c12
0.49	-0.01	CCN1C(=O)c2cccc3c(S(=O)(=O)NCCc4c[nH]c5ccccc45)ccc1c23

3 compounds from above, sorted by length of the SMILES, ascending:
KCNQ2 enhance	KCNQ2 enhance baseline	SMILES
3.2	0.15	COc1ccc(NC(=O)C2CCCO2)cc1 (configuration not stated)
0.48	-2.4	O=C(NCc1ccc2[nH]c3c(c2c1)CCCC3)c1ccc(S(=O)(=O)N2CCCC2)cc1
1.3	0.49	Cc1c(NS(=O)(=O)c2ccc3c(c2)CCN3C(=O)C2CC2)c(=O)n(-c2ccccc2)n1C

The listing picks up, repeating the 6 entries before the break.
KCNQ2 enhance	KCNQ2 enhance baseline	SMILES
0.42	0.4	O=C(O)CCc1ccc(-c2ccccc2)n1CC(=O)O
1.1	0.66	CCO[C@@H]1OC(C(=O)Nc2ccccc2)=C[C@H](c2csc3ccccc23)[C@H]1CCCO
0.26	-0.12	CCCCNc1cc(C)oc(=O)c1C(C)=O
0.49	-2.3	S=c1nc(-c2cc(Cl)ccc2Cl)[nH][nH]1
2.5	-0.46	COC(=O)COc1cc(C)cc2oc(=O)c(CC(=O)OC)c(C)c12
0.49	-0.01	CCN1C(=O)c2cccc3c(S(=O)(=O)NCCc4c[nH]c5ccccc45)ccc1c23
0.67	0.24	Cc1ccc(-c2cc(C(=O)N3CCOCC3)no2)cc1
0.36	1.3	COc1cc(OC)cc(C(=O)Nc2ncc3c(n2)CC(C)(C)CC3=O)c1
0.32	-0.59	C#CCSc1nc(Cc2ccc(Cl)cc2)nc2ccccc12
0.28	-1.2	Cc1ccc(S(=O)(=O)NC2(C(F)(F)F)NC(=O)N(c3ccccc3F)C2=O)cc1 (configuration not stated)
0.79	2	O=C(NC1CC(=O)N(c2ccc(Cl)cc2)C1)N1CCN(C(=O)c2ccco2)CC1 (configuration not stated)
0.23	2	COc1cc(/C=N/N2C(=O)C3C4c5ccccc5C(c5ccccc54)C3C2=O)ccc1O (configuration not stated)
0.62	-1.1	C/C(N)=C(/C#N)C(=O)COC(=O)c1ccc(OCC2CCCO2)cc1 (configuration not stated)
0.01	0.88	CC(=O)N1CCN(Cc2nc3cc(NC(=O)c4ccccc4C)ccc3n2C)CC1
1.4	1	CC(NS(=O)(=O)c1ccc(Br)cc1)C(=O)NCC1CCCO1 (configuration not stated)
0.25	-0.14	CCCn1cc(S(=O)(=O)c2ccc(C)cc2)c(=O)c2cc(OC)ccc21
1.1	-0.73	COc1cc(O)c(C(CC(=O)N2CCCC(C)C2)c2ccc3c(c2)OCO3)c(OC)c1 (configuration not stated)
0.5	0.48	CC(=O)Nc1ccc(S(=O)(=O)N2CCCCC2C(=O)O)cc1 (configuration not stated)
0.97	0.61	Cn1c(CNC(=O)CCNC(=O)c2ccc(F)c(F)c2)cc(=O)n(C)c1=O
0.63	-0.55	CCOc1ccc(NC(=O)CN2CCC(n3cnc4cc(F)ccc43)CC2)cc1
0.89	0.11	COc1ccccc1CC(=O)NCC1CCCO1 (configuration not stated)
0.47	0.88	COc1ccc(CNCCSc2nnnn2C)cc1OC
1.5	0.26	CCOC(=O)c1c(C)[nH]c(C)c1S(=O)(=O)N(C)CC(=O)Nc1ccccc1OC
1.1	-0.01	O=C(Cc1c[nH]c2ccccc12)NCc1ccc2c(c1)OCO2
0.79	0.14	Cc1cc(C)nc(-n2nc(C)c3c(C(F)F)cc(C)nc32)n1
1.1	-0.67	Cc1ccc(NC(=O)CCNS(=O)(=O)c2cc(Br)cnc2N)cc1Cl
0.04	1.7	CC(C)(C)c1ccc(Oc2coc3cc(OCC(=O)O)ccc3c2=O)cc1
0.49	0.4	Cc1ccc(S(=O)(=O)N2CCC(C(=O)NCCCN3CCCCCC3)CC2)cc1
0.28	0.92	O=C(Nc1cccnc1)c1noc2c1CCCC2
1.8	0	CCOc1ccc(C(C(=O)NCC2CCCO2)N(Cc2ccccc2)C(=O)c2snc(C(N)=O)c2N)cc1 (configuration not stated)
0.01	-1.1	O=C(O)CCCC(=O)Nc1ccc(N2CCCC2)cc1
0.88	-0.86	Cc1cc2ccccc2c(=O)n1CC(=O)NCC(=O)N1CCCC(C)C1 (configuration not stated)
0.01	0.19	O=c1[nH]n(-c2ccccn2)c(=O)c2ccccc12
1.3	2.2	CC1CCc2[nH]c3ccc(C(=O)NCCCOC(C)C)cc3c2C1 (configuration not stated)
0.01	-1.4	CC1CCc2sc(C(=O)N3CCN(c4ncccn4)CC3)cc2C1 (configuration not stated)
0.87	0.19	Cc1ccc(C)c(S(=O)(=O)N(C)C2CCS(=O)(=O)C2)c1 (configuration not stated)
0.93	1.3	C=CCSc1nnc(COc2ccc(=O)n(-c3ccccc3)n2)n1CC
1.4	0.28	Cc1cccc(COC(=O)Nc2ccc(NC(=O)c3ccccc3Cl)cc2)c1
0.38	-0.35	Cc1nnc(SCC2=C(C(=O)O)N3C(=O)C(NC(=O)C(C)n4nc(C(F)(F)F)cc4C)C3SC2)s1 (configuration not stated)
0.19	1.3	COc1ccc(N(CC(=O)N2CCN(c3ccc(Cl)cc3)CC2)S(=O)(=O)c2c(C)n[nH]c2C)cc1
0.44	1.7	Cc1ccccc1-c1nc(-c2ccccn2)no1
2.4	-1.3	CCOC(=O)c1c(NC(=O)c2ccco2)sc2c1CCCCC2
1.1	-1.4	COc1ccc(C(=O)C[n+]2ccc(N)c(C)c2C)cc1
0.13	-1.9	N#C/C(=C\c1ccc(F)cc1F)S(=O)(=O)c1ccccn1
0.13	-0.14	O=C(NCCCN1CCOCC1)c1ccc2c(c1)N(Cc1ccccc1)C(=O)c1ccccc1S2=O (configuration not stated)
0.26	-0.08	COc1ccc(OC)c(NC(=O)NC2(C(F)(F)F)Oc3ccccc3O2)c1
0.04	-0.32	COc1ccc(/C=N\NS(=O)(=O)c2ccc(Cl)cc2)cc1COc1ccccc1[N+](=O)[O-]
6.7*	0.38*	COc1ccccc1NC(=O)CC12CC3CC(CC(Br)(C3)C1)C2
2.3	3.2	O=S(=O)(NC1CCCC1)c1ccccc1Br
0.84	0.02	COC(C(=O)NNS(=O)(=O)c1ccc([N+](=O)[O-])cc1)c1ccccc1 (configuration not stated)
1.4	0	COc1ccccc1NC(=O)COc1cccc(-n2cnnn2)c1
0.01	-0.5	Cn1c(NCc2ccccc2)cc(=O)n(C)c1=O
1.3	0.53	O=C(CCCc1ccccc1)NCc1cn2ccsc2n1
0.93	1.5	CC(C)(C)OC(=O)N1CCC(c2cc(=O)n3[nH]cc(C(=O)NC4CCCC4)c3n2)CC1
0.5	0.1	O=C(NCCF)C1Nc2ccc(OC(F)(F)F)cc2C2C=CCC12 (configuration not stated)
0.16	2.8	COc1cc(OC)cc(-c2nc3ccccc3s2)c1
0.71	-0.3	Cn1c(CC(=O)Nc2ccccc2Cl)nnc1SCC(=O)NC1=NCCS1
1.2	0.2	CC1(C)CC(=O)C(C=NCCN2CCN(C(=S)NC3CCCCC3)CC2)=C(O)C1
0.01	0.7	CC(C)C(=O)NCC(c1ccc2c(c1)OCO2)N1CCOCC1 (configuration not stated)
0.52	-1.1	Cc1ccc(NC2=NC(C(=O)Nc3ccc(C)c(C)c3)CC(=O)N2)cc1 (configuration not stated)
0.79	-1.4	CCOC(=O)N1CCN(C(=O)CSc2ccc(-c3ccncc3)nn2)CC1
1.2	6.4	CCOC(=O)c1cnc(-c2ccccc2)nc1Oc1ccc(Cl)cc1
0.44	0	Cc1ccc(C)c(S(=O)(=O)n2cnc3ccccc32)c1
0.71	0.04	COc1ccccc1CN1CCCCC1C(=O)O (configuration not stated)
2.3	1.5	CSc1ccccc1C(=O)NCc1ccc(C)cc1
0.64	3.1	COC(=O)c1cncc(C)c1

Quoted at random: 6 entries already listed
KCNQ2 enhance	KCNQ2 enhance baseline	SMILES
0.01	-1.4	CC1CCc2sc(C(=O)N3CCN(c4ncccn4)CC3)cc2C1 (configuration not stated)
0.01	-0.5	Cn1c(NCc2ccccc2)cc(=O)n(C)c1=O
0.16	2.8	COc1cc(OC)cc(-c2nc3ccccc3s2)c1
3.2	0.15	COc1ccc(NC(=O)C2CCCO2)cc1 (configuration not stated)
0.25	-0.14	CCCn1cc(S(=O)(=O)c2ccc(C)cc2)c(=O)c2cc(OC)ccc21
0.04	-0.32	COc1ccc(/C=N\NS(=O)(=O)c2ccc(Cl)cc2)cc1COc1ccccc1[N+](=O)[O-]

The list continues:
KCNQ2 enhance	KCNQ2 enhance baseline	SMILES
0.58	-1.8	COc1ccc(C2=Nn3c(nnc3-c3cccnc3)SC2)cc1OC
0.16	-1.9	N#CCCn1cc(C(=O)Nc2ccccc2Br)c(-c2cc3ccccc3o2)n1
0.06	-3	COc1ccc(NC(=O)C2=NN(C3CCS(=O)(=O)C3)C(=O)CC2)cn1 (configuration not stated)
0.47	0.95	COc1ccc(OC)c(NC(=O)CSc2nn3c(=O)c(C)nnc3s2)c1
0.02	-1.4	CCn1cc(CNC(=S)Nc2cccc(Cl)c2C)cn1
0.07	0.83	Oc1ccc(N=C/C=C/c2ccc(Br)cc2)cc1-c1nc2ccccc2s1
23*	-0.02*	O=C(CSc1nc(-c2ccco2)cc(C(F)(F)F)n1)N1CCN(Cc2ccccc2)CC1
0.1	-0.09	COc1cc(/C=N/NC(=O)c2ccc([N+](=O)[O-])cc2Cl)cc(Br)c1O
0.07	1.9	COCCNC(=O)CN(C(=O)CCC(=O)Nc1ccccn1)c1ccc(OC)cc1
1.3	-0.07	COC(=O)C1=C(C)n2nnnc2NC1c1ccc(Cl)cc1 (configuration not stated)
0.48	0.38	Cn1c(Cn2c(=O)sc3ccccc32)nnc1SCC(=O)NC1CCCC1
0.2	-1.8	COc1ccc(-n2nc(C(=O)NCc3ccco3)c3ccccc3c2=O)cc1
1.1	-0.37	Cc1cccc(-n2c(=S)[nH]c3nc4c(cc3c2=O)COC(C)(C)C4)c1
0.02	-0.48	O=C(OCCN=C1NS(=O)(=O)c2ccccc21)c1ccccc1
0.83	-0.71	O=C(NCCCN1CCN(Cc2ccccc2Cl)CC1)Nc1ccccc1
0.5	-1.3	COCCCNC(=S)N1CCN(c2nc(-c3ccccc3)cs2)CC1
0.56	0.46	Cc1cccc2cc(CN(CCN(C)C)C(=S)NCc3ccco3)c(=O)[nH]c12
0.13	-0.07	C=C(C)Cn1c(N(CCO)Cc2ccccc2)nc2c1c(=O)[nH]c(=O)n2C
0.34	-1.2	CNS(=O)(=O)c1cccc(C(=O)OCC(=O)Nc2ccc(OC)cc2[N+](=O)[O-])c1
0.07	-0.17	COc1cc(/C=N/n2c(C)n[nH]c2=S)ccc1OCc1ccccc1
1.7	-0.06	COc1ccc(CCNC(=O)CC2(CC3=NS(=O)(=O)c4ccccc4N3)CCCC2)cc1OC
0.62	-0.48	Cc1nc(S(=O)(=O)N(C)c2ccccc2)c(C#N)c(C)c1Cl
0.34	-0.62	CCOc1ccc(N2C(=O)Nc3ccc(Br)cc3C2(O)C(=O)NCCCN(C)C)cc1 (configuration not stated)
